Compound activity as filed in PubChem.
LASV entry inh – blocks Lassa virus binding to or entry into cells. Potency, µM (series often up to 37.9 µM), for the others: top-dose activity change, negative = inhibition, usual class: inhibitors. Lassa virus pseudotype entry inhibition, cell reporter; control for the full effect not named in the record. 1.2% of 300,000 active; active means well fitted inhibition curve with a large enough effect; inconclusive means small, poorly fitted or top-dose-only effect, or effect the other way; inactive means flat fitted curve, though single readings scatter; tested in HEK293 cells; further: on the % scale 0 is the no-effect control and ±100 the full control effect; nearly all actives have a fitted effect of over 50% in size; luciferase read-out
Cruzain inh noDet – inhibitors of Trypanosoma cruzi cruzain without detergent | P25779 | purified cruzain, Z-FR-AMC fluorescence, no detergent | Potency, µM, for the others: max response, negative = inhibition, usual class: inhibitors | 2.3% of 200,000 active | AID 1476;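 further: plate controls were enzyme without inhibitor for no effect and buffer without enzyme for full effect; nearly all actives have a fitted effect of over 40% in size; top concentration of the series not given in the record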
Target sequence (P25779 123-467 limits assumed): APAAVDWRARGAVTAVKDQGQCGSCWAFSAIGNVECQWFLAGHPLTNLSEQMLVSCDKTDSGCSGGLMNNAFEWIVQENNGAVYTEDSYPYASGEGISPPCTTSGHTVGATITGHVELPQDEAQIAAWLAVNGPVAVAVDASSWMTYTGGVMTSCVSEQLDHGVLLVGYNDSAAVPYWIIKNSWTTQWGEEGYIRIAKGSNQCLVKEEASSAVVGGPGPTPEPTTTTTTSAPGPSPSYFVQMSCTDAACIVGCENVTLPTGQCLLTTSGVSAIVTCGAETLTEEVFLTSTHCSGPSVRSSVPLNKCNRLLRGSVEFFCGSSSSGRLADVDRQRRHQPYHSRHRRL
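Detergent-free condition (0.00005% Triton X-100) in acetate buffer pH 5.5 with DTT. 1.5 nM enzyme and compound were pre-mixed 15 min, then 2 uM Z-FR-AMC substrate added; reaction progress from fluorescence change between first and third reads (60 s).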
Marburg entry inh – inhibitors of Marburg virus binding or cell entry | Potency, µM (top dose mostly 37.8 µM), inactives show top-dose activity change, negative = inhibition, most hits filed as inhibitors | 1.8% of 300,000 active | Marburg virus pseudotyped entry inhibition, cell reporter; control for the full effect not named in the record; about a third of the inactives were read at about 46 µM; active = well fitted inhibition curve with a large enough effect; inconclusive = small, poorly fitted or top-dose-only effect, or effect the other way; inactive = flat fitted curve, though single readings scatter; tested in HEK293 cells; about a fifth of its hits are not listed in these tables; further: on the % scale 0 is the no-effect control and ±100 the full control effect; luciferase read-out
NS1 function inh – blocks influenza NS1 protein function. AID 2326. 0.4% of 270,000 active. Potency, µM (highest dose often 46.1 µM), for inactives: top-dose activity, positive = more growth. S. cerevisiae slowed by influenza A NS1, growth recovery by OD600; active means well fitted rising curve with a large enough effect; inconclusive means small, poorly fitted or top-dose-only effect; inactive means no such curve, though single readings can be large or run the other way; further: nearly all actives have a fitted effect of over 50% in size
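In this qHTS, NS1 from influenza A is expressed in budding yeast, where it slows growth. Cells are switched from glucose to 2% galactose medium (pH 6.0, -URA), treated with compound, and growth recovery is read at OD600.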
SARS PLP yeast – SARS-CoV PLP inhibition in yeast; S. cerevisiae expressing SARS-CoV PLpro, growth rescue; control for the full effect not named in the record; 0.19% of 330,000 active; Potency, µM (top dose mostly 32.9 µM), for the others: at the highest dose activity, positive = growth rescue; active means well fitted rising curve with a large enough effect; inconclusive means small, poorly fitted or top-dose-only effect; inactive means no such curve, though single readings can be large or run the other way; further: 0% is about no effect; nearly all actives have a fitted effect of over 55% in size; growth read by luminescence after 48 h
StopGo reporter – FMDV 2A StopGo reporter, luciferase signal. AID 1159524. 1.2% of 410,000 active. Potency, µM (top dose mostly 57.9 µM), without a hit: at the highest dose signal change, negative = less light. human cells with a luciferase reporter of 2A StopGo recoding; control for the full effect not named in the record; active = well fitted falling curve with a large enough effect; inconclusive = small, poorly fitted or top-dose-only effect; inactive = no such curve, though single readings can be large or run the other way; tested in HEK293T cells; further: on the % scale 0 is the no-effect control and ±100 the full control effect; nearly all actives have a fitted effect of over 45% in size; luciferase light after 4 h
Cruzain Triton – inhibitors of Trypanosoma cruzi cruzain with detergent. Potency, µM, without a hit: max response, negative = inhibition, hits mostly inhibitors. purified cruzain, Z-FR-AMC fluorescence, 0.01% Triton. P25779. 0.43% of 200,000 active. AID 1478;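 further: plate controls were neutral wells for no effect and buffer without enzyme for full effect; nearly all actives have a fitted effect of over 40% in size; top concentration of the series not given in the record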
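Read-out: AMC fluorescence (360 nm excitation, 450 nm emission), four reads over 2 min, first-to-third difference used. Conditions: cruzain 1.5 nM, Z-FR-AMC 2 uM, pH 5.5 acetate, 5 mM DTT, 0.01% Triton X-100.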
RE007 growth inh – less growth of the S. pombe RE007 Vpr strain; S. pombe RE007 Vpr strain, BacTiter-Glo ATP luminescence, 24 h; control for the full effect not named in the record; Potency, µM (doses to about 92.2 µM), without a hit: top-dose activity change, negative = less growth; 0.21% of 360,000 active; active = well fitted falling curve with a large enough effect; inconclusive = small, poorly fitted or top-dose-only effect; inactive = no such curve, though single readings can be large or run the other way;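 further: on the % scale 0 is the no-effect control and ±100 the full control effect; nearly all actives have a fitted effect of over 50% in size; the assay follows cell death caused by Vpr and the record does not say whether a fall means rescue or toxicity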
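Fission yeast RE007 carrying one integrated HIV-1 vpr copy, seeded at OD 0.01 in PMG+AL medium with 23 nL pinned compound. Grown 24 h at 30 degrees; viability read by BacTiter-Glo luminescence after 5 min.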
An asterisk follows results filed as active; ? = inconclusive; nt = not tested or not shown; & = joins results of further samples; [ ] = another dose, or the depositor's remark. Unless noted, the call rests on the fitted dose curve; in most records, active means well fitted curve in the direction sought with a large enough effect; inconclusive means small, poorly fitted or top-dose-only effect, or another doubt; inactive means no such curve, though single readings can be large; an effect the other way counts as inactive or inconclusive. Potency means the concentration at half of the fitted maximal effect. Outcome played no part in choosing rows; about 4.8% have a hit in one of these screens.

SMILES	LASV entry inh	Cruzain inh noDet	Marburg entry inh	NS1 function inh	SARS PLP yeast	StopGo reporter	Cruzain Triton	RE007 growth inh
COc1ccc(C(=O)c2sc3nc(C)cc(-c4cccs4)c3c2N)cc1OC	2%	?	?	26%	-8%	?	-5.0%	2%
Cc1ccc(S(=O)(=O)N2CCC(C(=O)NC3CCCC3)CC2)cc1Cl	3%	nt	?	-15%	-4%	-23%	nt	-15%
Cc1cc(C)c(NC(=O)CC(C)(C)C)c(Cl)c1	24%	-8%	4%	?	1%	-4%	6.3%	28%
CC(C)OCP(=O)(c1ccccc1)c1ccccc1	?	10%	14%	-1%	10%	1%	0.9%	-1%
CCOC(=O)N1CCN(C(=O)c2cnn(-c3ccccc3)c2NC(=O)c2ccccc2F)CC1	?	6%	-5%&10%	6%	nt	nt	-5.7%	9%
CC1CCCCC1NC(=O)CO/N=C/c1ccc(OC(F)F)cc1 (stereo not drawn)	2%	nt	-7%[46.1 µM]	-3%	0%	-4%	nt	2%
COc1ccccc1C(=O)N/C(=C\c1cn(C)c2ccccc12)C(=O)NCCCn1ccnc1	-13%[46.1 µM]	nt	-3%[46.1 µM]	8%	-4%	10%	nt	13%
COC(=O)CCCNC(=O)CC1C(=O)NCCN1Cc1ccoc1 (stereo not drawn)	nt	nt	nt	0%	0%	-4%	nt	-5%
Cc1ccccc1C(=O)NC(CC(C)C)C(=O)NN1C(=O)c2ccccc2C1=O (stereo not drawn)	0%[46.1 µM]	nt	?	6%	3%	-5%	nt	-4%
CCCCN1C(=O)C2C3C=CC(C2C1=O)C1C2C(=O)N(CCCC)C(=O)C2C31 (stereo not drawn)	-5%	6%	0%	-8%	7%	-12%	2.3%	-5%
CCOc1ccc(-c2oc3ccccc3c(=O)c2O)cc1OCC	?	4%	-26%[46.1 µM]	nt	nt	34%[activator]	-3.0%	nt
Cc1ccc(/C=N/c2sc3c(c2C#N)CCC3)o1	-5%	-4%	?	13%	-2%	36%[activator]	-7.4%	23%
O=C(c1ccc2nc(N3CCCCC3)sc2c1)N1CCN(c2ccccn2)CC1	nt	-3%	2%	-107%	-17%	37%[activator]	-1.1%	-12%
CCN1CCN(CC(=O)n2c3c(c4ccccc42)CC(C)CC3)CC1 (stereo not drawn)	-26%	-3%	?	-35%	-7%	-23%	-3.4%	-24%
CCc1ccc(NC(=O)N2CCCCCC2)cc1	nt	nt	nt	0%	-6%	0%	nt	1%
COc1ccc(C(C)=O)cc1CC(C(=O)c1ccccc1)N(C)C (stereo not drawn)	-2%	-10%	?	-1%	-9%	29%	2.8%	-21%
CCCc1cc(=O)[nH]c2nnc(SCC(=O)Nc3cccc(NC(C)=O)c3)n12	21%	nt	17%	nt	1%	-6%	nt	10%
Cc1ccc(NC(=O)C2CC(=O)N(c3ccc4c(c3)OCCO4)C2)nc1 (stereo not drawn)	-3%[46.1 µM]	nt	?	nt	1%	-7%	nt	8%
Cc1ccccc1NC(=O)c1ccc(OCc2c(C)noc2C)cc1	-16%	nt	-12%	nt	0%	-3%	nt	3%
CCOC(=O)c1c(C)[nH]c(C(=O)CSc2nccc(C)n2)c1C	?	8%	4%[46.1 µM]	10%	1%	78%[activator]	0.2%	0%
COc1cc(CC(=O)Nc2nccs2)cc(OC)c1OC	5%	-4%	-4%	-1%	?	?	-2.3%	-6%
COC(=O)C(NC(C)=O)(Nc1nc2ccc(S(C)(=O)=O)cc2s1)C(F)(F)F (stereo not drawn)	-4%	-6%	0%&0%	1%	-2%	-25%	3.1%	3%
COc1ccc(N2CCN(C(=O)COc3cccc4ccccc34)CC2)cc1	?	nt	-13%	-3%	-6%	-10%	nt	11%
CCOc1ccc(N=Cc2c(C)[nH]n(-c3nc4ccccc4[nH]3)c2=O)cc1	-19%	?	?	-4%	-91%	?	-3.9%	4µM*
O=C(NCCCc1ccncc1)C1CCC(=O)N(Cc2cccc(F)c2)C1 (stereo not drawn)	nt	nt	nt	-10%	30%	4%	nt	6%
CCOC(=O)c1c[nH]c2c(Cl)c(Cl)ccc2c1=O	?	-4%	8%	2%	16%	5%	5.7%	18%
O=C(CSc1nnc(NC(=O)C2CCC2)s1)Nc1ccccc1Br	nt	nt	-27%[46.1 µM]	2%	2%	1%	nt	22%
Cc1c(Cl)cccc1NC(=O)c1ccc(OCC(=O)NCc2ccccc2)cc1	?	?	?	11%	7%	?	1.3%	2%
CC(=O)Nc1ccc(Nc2ccc(N3C(=O)CCCC3=O)cc2[N+](=O)[O-])cc1	0%	11%	1%	-10%	4%	-23%	-8.4%	-1%
Cc1c(Cl)cccc1NC(=O)C(=O)NCCc1csc(-c2ccc(C(F)(F)F)cc2)n1	?	2%	nt	nt	nt	-23%	0.7%	nt
CC(=O)Nc1ccc(Nc2c([N+](=O)[O-])cc(S(C)(=O)=O)cc2[N+](=O)[O-])cc1	2%	-6%	?	27%	14%	-11%	-6.3%	20%
O=C(NCc1ccccc1)c1ccccc1-c1nc2ccccc2[nH]1	-1%	nt	14%[46.1 µM]	nt	2%	3%	nt	-6%
CC(=O)c1ccc(OCc2ccccc2)c(C)c1O	0%	-4%	?	-42%	-9%	33%[activator]	-1.0%	10%
N[C@H](CCCCCP(=O)(O)O)C(=O)O	nt	5%&0%&12%	?	1%	nt	-8%&-8%	-1.3%&3.1%&3.9%	nt
COc1ccc(/C=N/NC(=O)c2ccco2)cc1Cn1nc(C)c([N+](=O)[O-])c1C	-3%	nt	?	nt	1%	?	nt	9%
COc1ccc(-c2csc(NC(=O)C(CC(=O)O)N3CCOCC3)n2)cc1 (stereo not drawn)	-7%[46.1 µM]	nt	17%[46.1 µM]	16%	nt	-6%	nt	-5%
CC1=Nc2cc(C(=O)NCCN3CCOCC3)ccc2Sc2c(C)ccc(C)c21	nt	nt	nt	-2%	-7%	-20%	nt	5%
CCN(CC)CCOC(=O)c1ccc(N/C=C(/C#N)c2nc(-c3ccc4c(c3)OCO4)cs2)cc1	15%	nt	?	19%	3%	-22%	nt	-6%
Cc1ccc(NC(=S)NCCc2ccc(F)cc2)c(C)c1	13%	0%	?	-6%	?	12%	-5.0%	0%
CCN(Cc1cccc(F)c1)C(=O)c1ccc2ccccc2n1	4%	nt	-3%[46.1 µM]	-10%	-1%	16%	nt	4%
Cc1ccc(C)c(NC(=O)CN2CCSc3ccc(S(=O)(=O)N4CCCC4)cc32)c1	?	-2%	nt	nt	nt	-24%	-7.7%	nt
O=C(NCCCn1ccnc1)c1nc(Cn2cc([N+](=O)[O-])cn2)no1	9%	nt	7%[46.1 µM]	18%	-4%	7%	nt	-19%
N#Cc1nc(COc2ccc(-c3ccccc3)cc2)oc1NCc1cccnc1	?	?	?	-110%	nt	?	0.4%	-1%
COc1ccc(N2CCN(C(=O)COc3ccccc3)CC2)cc1	12%	9%	5%	-4%	4%	nt	3.7%	-10%
Cc1ccc(N2C(=O)CSC2=S)cc1C	-16%	nt	-2%	7%	-1%	-11%	nt	-5%
N#CC1=C(N)Oc2cc(O)ccc2C1c1ccccc1 (stereo not drawn)	0%	-1%	23%	-3%	1%	-7%	-1.5%	2%
O=C(NC1CCCCC1)C(c1ccccc1)N1CCCC1 (stereo not drawn)	11%	-10%	-23%	-2%	7%	2%	5.3%	18%
O=C(O)CC(CC(=O)N1CCN(C(=O)c2ccco2)CC1)c1ccccc1 (stereo not drawn)	?	nt	20%[46.1 µM]	0%	2%	-11%	nt	-12%
O=C(NCC1CCCCC1)C1(CC2CC(c3ccc(Cl)cc3)=NO2)CCNCC1 (stereo not drawn)	nt	nt	nt	15%	-8%	28%	nt	-8%
CCOc1ccc(NS(=O)(=O)c2ccc3[nH]cc(C(=O)NCc4ccco4)c(=O)c3c2)cc1	-26%[46.1 µM]	-16%	1%[46.1 µM]	nt	nt	23%	-4.1%	nt
CCN(CC)S(=O)(=O)c1cc(NC(=O)CN2CCN(c3ccccn3)CC2)ccc1C	nt	nt	nt	15%	0%	?	nt	-9%
COc1cc(NC(=O)c2cccc3c2C(=O)N(C2CCCCC2)C3)cc(OC)c1	?	9%	9%[46.1 µM]	nt	nt	-20%	-1.9%	nt
COc1ccc(N2CCN(S(=O)(=O)c3ccc4c(c3)CCCC4)CC2)c([N+](=O)[O-])c1	?	-18%	?	?	-1%	nt	-3.3%	-3%
C/C(=N\NC(=O)c1cc2c(s1)CCC(C)C2)c1ccncc1 (stereo not drawn)	2%	19%	?	-3%	-28%	0%	-0.5%	-10%
CCN1CCN(c2cc(N3CCN(C(=O)c4ccco4)CC3)c3c4c(onc24)-c2ccccc2C3=O)CC1	-8%	nt	?	-3%	-16%	?	nt	-19%
CCOC(=O)C1C(=O)CC(C)(O)C(C(=O)OCC)C1c1ccc(N(CC)CC)cc1 (stereo not drawn)	-17%	-14%	-13%	1%	-4%	0%	4.7%	0%
Cc1ccc(C)c(NC(=O)CCNS(=O)(=O)c2ccc3c(c2)CCCC(=O)N3)c1	6%[46.1 µM]	-3%	nt	nt	nt	-16%	1.0%	nt
Cc1cc(NC(=O)C2C3C(=O)N(CC4CCCO4)C(C(=O)NC(C)(C)C)C34C=CC2(C)O4)no1 (stereo not drawn)	-1%[46.1 µM]	nt	?	6%	-2%	2%	nt	-4%
CC12CCC(=O)N1C(C(=O)Nc1cccc3ccccc13)CS2 (stereo not drawn)	19%	-8%	-3%	-2%	8%	-13%	0.3%	-9%
COc1nnc(-c2ccc(N3CCCCC3)c(NC(C)=O)c2)c2ccccc12	-10%	3%	-1%	-14%	-17%	-20%	-3.1%	11%
Nc1nonc1-n1nnc(C(=O)N/N=C/c2ccncc2)c1-c1ccccc1	nt	nt	?	16%	0%	-17%	nt	-21%
